# StopGo reporter: lowers the luciferase signal of an FMDV 2A StopGo reporter. Potency, µM (highest dose often 57.9 µM), for inactives: at the top dose signal change, negative = less light. actives 1.2% (n = 410,000). human cells with a luciferase reporter of 2A StopGo recoding; control for the full effect not named in the record; active = well fitted falling curve with a large enough effect; inconclusive = small, poorly fitted or top-dose-only effect; inactive = no such curve, though single readings can be large or run the other way; tested in HEK293T cells; also: % is scaled to controls: 0 for no effect and ±100 for the full control effect; nearly all actives have a fitted effect of over 45% in size; luciferase light after 4 h
# Cruzain noTriton: cruzain (T. cruzi) inhibition without detergent. Potency, µM, for inactives: max response, negative = inhibition, usual class: inhibitors. P25779. purified cruzain, Z-FR-AMC fluorescence, no detergent. AID 1476. actives 2.3% (n = 200,000);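 also: plate controls were enzyme without inhibitor for no effect and buffer without enzyme for full effect; nearly all actives have a fitted effect of over 40% in size; top concentration of the series not given in the record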
# Target sequence (P25779 123-467 limits assumed): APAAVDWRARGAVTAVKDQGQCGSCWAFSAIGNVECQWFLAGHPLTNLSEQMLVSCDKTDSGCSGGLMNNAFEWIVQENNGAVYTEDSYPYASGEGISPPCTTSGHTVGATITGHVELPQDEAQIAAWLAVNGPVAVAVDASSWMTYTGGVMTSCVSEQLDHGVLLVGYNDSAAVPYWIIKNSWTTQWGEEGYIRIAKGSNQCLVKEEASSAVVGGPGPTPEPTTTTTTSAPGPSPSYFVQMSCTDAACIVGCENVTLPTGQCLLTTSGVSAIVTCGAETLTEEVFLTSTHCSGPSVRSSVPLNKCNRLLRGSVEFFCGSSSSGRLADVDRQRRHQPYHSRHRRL
#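 Purified cruzain at 1.5 nM, pre-incubated 15 min with compound at room temperature in 100 mM sodium acetate pH 5.5, 5 mM DTT, 0.00005% Triton X-100. Reaction started with 2 uM Z-FR-AMC; AMC fluorescence increase over 60 s gives rate.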
# Cruzain Triton: inhibitors of Trypanosoma cruzi cruzain with detergent; purified cruzain, Z-FR-AMC fluorescence, 0.01% Triton; P25779; actives 0.43% (n = 200,000); Potency, µM, without a hit: max response, negative = inhibition, most hits filed as inhibitors;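 also: plate controls were neutral wells for no effect and buffer without enzyme for full effect; nearly all actives have a fitted effect of over 40% in size; top concentration of the series not given in the record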
#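 Detergent-containing arm of a paired screen for aggregation-based inhibition: 0.01% Triton X-100 present. Cruzain at 1.5 nM cleaved 2 uM Z-FR-AMC at pH 5.5 with 5 mM DTT; AMC fluorescence gain over 60 s measured activity.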
# MARV entry inh: inhibitors of Marburg virus binding or cell entry; actives 1.8% (n = 300,000); Marburg virus pseudotyped entry inhibition, cell reporter; control for the full effect not named in the record; about a third of the inactives were read at about 46 µM; AID 540276; Potency, µM (series often up to 37.8 µM), inactives show at the highest dose activity change, negative = inhibition, hits mostly inhibitors; active = well fitted inhibition curve with a large enough effect; inconclusive = small, poorly fitted or top-dose-only effect, or effect the other way; inactive = flat fitted curve, though single readings scatter; tested in HEK293 cells; about a fifth of its hits are not listed in these tables; also: % is scaled to controls: 0 for no effect and ±100 for the full control effect; luciferase read-out
# SARS PLP yeast: inhibitors of SARS-CoV papain-like protease in yeast. AID 485353. actives 0.19% (n = 330,000). S. cerevisiae expressing SARS-CoV PLpro, growth rescue; control for the full effect not named in the record. Potency, µM (doses to about 32.9 µM), for the others: at the top dose activity, positive = growth rescue; active means well fitted rising curve with a large enough effect; inconclusive means small, poorly fitted or top-dose-only effect; inactive means no such curve, though single readings can be large or run the other way; also: 0% is about no effect; nearly all actives have a fitted effect of over 55% in size; growth read by luminescence after 48 h
# RE007 growth inh: less growth of the S. pombe RE007 Vpr strain | actives 0.21% (n = 360,000) | Potency, µM (doses to about 92.2 µM), for inactives: top-dose activity change, negative = less growth | S. pombe RE007 Vpr strain, BacTiter-Glo ATP luminescence, 24 h; control for the full effect not named in the record; active = well fitted falling curve with a large enough effect; inconclusive = small, poorly fitted or top-dose-only effect; inactive = no such curve, though single readings can be large or run the other way;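 also: % is scaled to controls: 0 for no effect and ±100 for the full control effect; nearly all actives have a fitted effect of over 50% in size; the assay follows cell death caused by Vpr and the record does not say whether a fall means rescue or toxicity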
#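 Fission yeast RE007 carrying one integrated HIV-1 vpr copy, seeded at OD 0.01 in PMG+AL medium with 23 nL pinned compound. Grown 24 h at 30 degrees; viability read by BacTiter-Glo luminescence after 5 min.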
# NS1 inh: influenza NS1 inhibition | S. cerevisiae slowed by influenza A NS1, growth recovery by OD600 | Potency, µM (highest dose often 46.1 µM), inactives show at the highest dose activity, positive = more growth | actives 0.4% (n = 270,000); active means well fitted rising curve with a large enough effect; inconclusive means small, poorly fitted or top-dose-only effect; inactive means no such curve, though single readings can be large or run the other way; also: nearly all actives have a fitted effect of over 50% in size
#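 S. cerevisiae expressing influenza A NS1, grown in glucose, washed, then diluted 1:100 into pH 6.0 -URA galactose medium with 23 nl compound. Growth recovery read as OD600; NS1-free strain serves as control.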
# LASV entry inh: Lassa virus entry inhibition. AID 540256. actives 1.2% (n = 300,000). Lassa virus pseudotype entry inhibition, cell reporter; control for the full effect not named in the record. Potency, µM (doses to about 37.9 µM), inactives show at the highest dose activity change, negative = inhibition, usual class: inhibitors; active means well fitted inhibition curve with a large enough effect; inconclusive means small, poorly fitted or top-dose-only effect, or effect the other way; inactive means flat fitted curve, though single readings scatter; tested in HEK293 cells; also: % is scaled to controls: 0 for no effect and ±100 for the full control effect; nearly all actives have a fitted effect of over 50% in size; luciferase read-out
# * marks the source's active call; other numbers are inactive results; ? = inconclusive; / = not tested or not shown; & = joins results of further samples; [ ] = another dose, or the depositor's remark. Unless noted, calls follow the shape of the dose curve; as a rule, active = well fitted curve in the direction sought with a large enough effect; inconclusive = small, poorly fitted or top-dose-only effect, or another doubt; inactive = no such curve, though single readings can be large; an effect the other way counts as inactive or inconclusive. Potency is read from the fitted curve at half-maximal effect.
SMILES,StopGo reporter,Cruzain noTriton,Cruzain Triton,MARV entry inh,SARS PLP yeast,RE007 growth inh,NS1 inh,LASV entry inh
Cc1oc2c(CN(C)C)c(O)ccc2c(=O)c1-c1cscn1,/,4%,-0.5%,0%,-1%,-3%,-2%,3%
Cn1c(=O)cc(OCC(=O)NCc2ccc(F)cc2Cl)c2ccccc21,14%,18%,3.5%,12%[46.1 µM],/,/,/,?
CN(N)C(=S)NCc1ccccc1,-11%,-7%,0.3%,28%,8%,-11%,2%,1%
CCN1CCN(C(=O)c2ccc3c(c2)N(Cc2ccc(F)cc2)C(=O)c2ccccc2S3=O)CC1 (stereo not given),-23%,-3%,-1.1%,/,-13%,2%,-3%,/
Cc1ccc(C(=O)CCNc2cccc(Br)c2)o1,14%,-4%,-8.8%,3%,0%,?,-30%,-6%
Oc1ccc(Br)cc1/C=N/n1c(C2CCCCC2)n[nH]c1=S,-16%,/,/,-5%[46.1 µM],-13%,-21%,7%,?
N#C/C(=C/c1ccc(Oc2ccc([N+](=O)[O-])cn2)cc1)C(=O)N1CCOCC1,-24%,?,-5.3%,0%,-2%,-8%,-4%,1%
CC1CCN(Cc2nnnn2CCCC(=O)NCCc2cnn(C)c2)CC1,5%,/,/,/,0%,13%,7%,/
O=C(CSc1ncnc2c1nnn2Cc1ccccc1)NC1CCCC1,?,/,/,-8%[46.1 µM],0%,17%,/,-11%
c1ccc(OCCN2CCOCC2)cc1,-7%,/,/,/,3%,1%,-3%,/
COc1ccc(CN(CCN2CCOCC2)C(=O)c2c(F)cccc2F)cc1OC,-18%,-1%,4.4%,-20%,-1%,-3%,-6%,74%[14.3 µM]
O=C(NC(=S)Nc1ccccc1Cl)c1cncc(C#Cc2ccccc2)c1,-5%,/,/,1%[46.1 µM],-1%,?,1%,10%[46.1 µM]
O=C(CSc1ncc(S(=O)(=O)c2ccc(Cl)cc2)c(=O)[nH]1)Nc1ccc2c(c1)OCCO2,-9%,23%,-12%,2%[46.1 µM],/,/,/,/
CCC(C(=O)N1CCOCC1)n1nc(C)c2sc3ccccc3c2c1=O (stereo not given),-1%,/,/,/,6%,19%,16%,/
Cc1cc(C)cc(NC(=O)CN2C(=O)c3ccccc3Sc3ccc(C(=O)N4CCOCC4)cc32)c1,-15%,?,-6.2%,/,/,/,/,-9%[46.1 µM]
COc1ccc(C)cc1NC(=O)C1C2C=CC(C2)C1C(=O)O (stereo not given),22%,-5%,2.3%,3%,2%,3%,3%,-23%
CCN(CC)c1ccc(C2C3CCCCC3(O)CCN2C(=O)c2cccs2)cc1 (stereo not given),10%,-2%,-0.7%,-14%,-5%,-12%,6%,?
Cc1cc(C)cc(NC(=O)C2CCN(c3cc(C)nc4c(-c5ccc(Cl)cc5)c(C)nn34)CC2)c1,3%,3%,0.6%,10%[46.1 µM],/,/,/,15%[46.1 µM]
Cc1cc(C)c2c(C(C)(C)C)nn(-c3ccccc3)c2n1,-9%,/,/,/,-1%,-5%,1%,/
Cc1ccccc1NC(=O)COc1nsnc1N1CCOCC1,-14%,-3%,2.8%,1%,-1%,16%,5%,-10%
Cc1oc(C(C)(C)C)cc1C(=O)NCc1ccc2c(c1)OCO2,6%,/,/,-23%[46.1 µM],1%,-9%,0%,-12%[46.1 µM]
CC(=O)c1c(C)oc2c1cc(NS(=O)(=O)c1ccc(C(=O)O)cc1)c1ccccc12,-11%,/,/,?,0%,6%,13%,?
CC(=O)Nc1cccc(NC(=O)CCc2ccccc2)c1,17%,-2%,2.8%,12%,-5%,0%,9%,1%
CCCCN1C(=O)CC(Sc2ccccc2C(=O)O)C1=O (stereo not given),18%,12%,3.4%,12%,1%,-14%,8%,2%
CCCn1c(SCC(=O)NC(C)(C)C)nnc1-c1ccco1,-14%,/,/,0%[46.1 µM],1%,0%,-1%,14%
O=C(Nc1nnc(S(=O)(=O)Nc2ccccc2)s1)C1CCCCC1,-11%&7%,2%,-3.8%,/,2%,-16%,11%,20%[46.1 µM]
C=CCNC(=O)C(=O)NCCOc1ccccc1Cl,14%,4%,0.5%,-46%,6%,16%,-12%,-13%
CC(NC(=O)NCCCC(=O)O)(C(F)(F)F)C(F)(F)F,10%,2%,5.0%,14%&14%,12%,20%,-4%,7%
Cc1ccc(CN(C(=O)c2csnn2)C(C(=O)NC2CCCC2)c2cccnc2)cc1 (stereo not given),11%,/,/,0%[46.1 µM],2%,-15%,-1%,?
COc1ccc(CN(C(=S)Nc2ccccc2)C2CC(=O)N(c3ccccc3)C2=O)cc1 (stereo not given),12%,2%,-8.9%,2%,-6%,7%,-29%,-9%
CCCN(CCC)CC(O)Cn1cc(/C=C/C(=O)c2ccc(Br)cc2)c2ccccc21 (stereo not given),-5%,7%,-2.2%,-7%[46.1 µM],/,/,/,24%[46.1 µM]
O=C(NCCc1ccccc1)C1CCN(S(=O)(=O)N2CCCCCC2)CC1,-9%,/,/,?,-1%,1%,-8%,0%[46.1 µM]
N#CCCn1c(C(C#N)(CCC#N)CCC#N)nc2ccccc21,/,-4%,4.1%,14%,-1%,-1%,6%,10%
COc1cc(OC)cc(C(=O)NCC(=O)N2CCC(C)CC2)c1,-7%,7%,4.5%,?,-2%,8%,-2%,0%
OC(c1ccccc1)c1nccc2ccccc12 (stereo not given),-7%,/,/,?,1%,3%,/,-2%
Cc1cccc(Nc2c3c(nc4nncn24)CCC3)c1,-20%,-1%,0.4%,1%[46.1 µM],/,/,/,4%[46.1 µM]
CCOc1cc(C(C(=O)NCC2CCCO2)N(C(=O)Cn2nnc3ccccc32)c2ccc(C(C)=O)cc2)ccc1O (stereo not given),23%,/,/,?,1%,-5%,-14%,-1%
COc1cccc(C2C(C#N)=C(N)Oc3c2oc(CO)cc3=O)c1OC (stereo not given),58%[activator],-5%,1.8%,0%,-5%,14%,-10%,10%
Cc1ccc(NC2=C(N3CCCCC3)C(=O)c3ccccc3C2=O)cc1,/,-3%,-7.1%,?,3%,-4%,-13%,?
NC(=O)c1ccccc1NC(=O)CN1CCN(Cc2ccc(Cl)cc2Cl)CC1,18µM*,/,/,?,-3%,-2%,-3%,-26%
CCOC(=O)c1c(C)nc(C)c(C(=O)OCC)c1-c1ccc(Br)cc1,0%,?,-7.4%,?,29%,-16%,-14%,-17%
CCOc1ccccc1C(=O)NCC(=O)OCc1csc(CC(=O)Nc2ccc(C)cc2)n1,16%,/,/,15%,1%,22%,/,20%
COc1ccc2cc(-c3ccccc3)c(=O)oc2c1,-20%,/,/,?,-5%,-14%,-18%,4.5µM*
CS(=O)(=O)N(CC(=O)N1CCc2ccccc2C1)c1cccc(F)c1,-2%,/,/,-2%[46.1 µM],3%,-4%,6%,2%[46.1 µM]
CCN(CC)C(=O)c1ccc(C(=O)c2ccccc2)cc1,/,4%,-2.9%,13%,0%,9%,-34%,?
COc1ccc(Oc2nnc(C)c3ccccc23)cc1,60%[activator],-1%,-1.6%,?,13%,-13%,-31%,?
CC(C)[C@H](NC(=O)OCc1ccccc1)C(=O)OCC(=O)c1ccccc1,83%[activator],/,/,?,1%,-3%,/,?
Cc1ccc(C(=O)O/N=C(\N)c2ccc(Br)cc2)cc1C,45%[activator],?,1.6%,22%,5%,18%,-23%,-20%
CC(Oc1ccc(F)cc1)C(=O)Nc1cccc(-c2nn[nH]n2)c1 (stereo not given),-15%,/,/,/,26%,2%,24%,/
O=C(NCc1ccc2c(c1)OCO2)C(=O)Nc1cc2c3c(c1)CC(=O)N3CCC2,-11%,/,/,-6%,-3%,1%,/,-3%
Cc1onc(-c2ccccc2)c1C(=O)OCC(=O)c1ccccc1,?,-9%,-0.2%,?,-11%,-11%,-9%,-16%
C/C(CC(=O)Nc1ccc2c(c1)OCCO2)=N\NC(=O)Cc1ccc(Cl)cc1,-4%,/,/,0%[46.1 µM],3%,1%,-2%,?
COc1cc(OC)cc(C(=O)N2CCCC(Nc3ccc(F)cc3)C2)c1 (stereo not given),-13%,/,/,1%[46.1 µM],3%,6%,-5%,0%[46.1 µM]
CC(=O)Nc1ccc(/C(C)=N/NC(=O)c2ccc(COc3ccccc3Cl)o2)cc1,-11%,/,/,-28%[46.1 µM],/,28%,/,?
COc1ccc(NC(=O)C2=C(C)Nc3nc(CCCO)nn3C2c2ccc(O)cc2)cc1 (stereo not given),-8%,-8%,-2.0%,/,/,/,/,?
Cc1cc(SCc2ccc(F)cc2)nc(=O)[nH]1,1%,/,/,/,-8%,2%,4%,/
COc1ccc(NC(=O)C(=O)NNC(=O)COc2ccc(OC)cc2)cc1,0%,/,/,-2%[46.1 µM],1%,-25%,4%,5%[46.1 µM]
Cc1ccc(NC(=O)NCc2ccccn2)cc1Cl,21%,/,/,/,0%,-1%,-3%,/
CC(=O)N(C)c1ccc(NC(=O)Nc2ccc(C)cc2)cc1,49%[activator],/,/,/,0%,8%,-9%,/
CC(C)Cc1cc(C(=O)NCCN2CCOCC2)no1,2%,9%,-2.4%,/,-1%,-8%,3%,/

# Next part.
SMILES,StopGo reporter,Cruzain noTriton,Cruzain Triton,MARV entry inh,SARS PLP yeast,RE007 growth inh,NS1 inh,LASV entry inh
O=C(Nc1ccccc1Cl)c1cccs1,32%[activator],-5%,-0.2%,-22%,4%,-13%,-6%,5%
CC(C)(C)C1CCc2c(C(=O)N/N=C/c3cccs3)csc2C1 (stereo not given),33%[activator],-25%,-4.6%,22%,-3%,18%,3%,-5%
O=C(COC(=O)C12CC3CC(CC(C3)C1)C2)Nc1ccc2[nH]c(=O)[nH]c2c1,27%,/,/,-1%[46.1 µM],6%,17%,7%,?
Cc1ccc(S(=O)(=O)N2CCCC2C(=O)Nc2cc(C)on2)cc1 (stereo not given),/,1%,3.6%,6%,-6%,2%,-3%,12%
Cc1ccc(-c2nnn(CC(=O)Nc3cccc4cccnc34)n2)o1,-12%,-1%,-0.7%,-22%[46.1 µM],-8%,-10%,-11%,?

# Source: PubChem (National Center for Advancing Translational Sciences (NCATS))
